PrP UTR inh: inhibition of PrP 5' UTR reporter expression | cell-based PrP 5' UTR mRNA reporter, plate reader | inhibition, % (test concentration not listed) | hit rate 0.35% among 340,000;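 active means every replicate at 50% or more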;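 further: 0 = median of the neutral control wells; tested in H4 reporter cells; numbers are from one replicate; inactives centre near -14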
Mtb hypoxia rep: Mtb hypoxia fluorescent reporter inhibition; AID 1159583; M. tuberculosis hypoxia-regulated fluorescent reporter, fluorescence; hit rate 0.1% among 300,000; fluorescence inhibition, % (concentration not given with the values);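 active means 35 to 45% if threefold the growth effect, above 45% if 1.5-fold the growth effect; inactive means the rest, general growth blockers included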;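 further: wells of about 50 µL received 100 nL stock; 0% = vehicle wells and 100% = reference inhibitor wells; whole bacteria with a GFP reporter of the hypoxia response; strong numbers were not always called active; many hits fall short of the cut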
ugtP null kill: growth inhibition of S. aureus ugtP deletion strain; hit rate 0.54% among 330,000; S. aureus RN4220 ugtP deletion, OD600 growth, 16 h; some inactives read as strong as hits; growth inhibition, % (no concentration beside the values); AID 1259309;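 active means z-score under -3 and OD600 up to 0.15 on both plates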;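 further: plate controls were untreated wells for no effect and antibiotic for full effect; wells of about 80 µL received 100 nL stock; the first replicate is given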
Sa RN4220 lethal: kills Staphylococcus aureus RN4220; S. aureus RN4220 growth, OD600, 16 h; inhibition, % (test concentration not listed); hit rate 0.33% among 330,000; AID 1259311;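 active means z-score of -3 or lower and OD600 up to 0.18 on both plates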;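 further: plate controls were untreated cells for no effect and reference antibiotic for full effect; stock transfer was 100 nL into about 80 µL; one replicate is shown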
BJeLR viability: kills HRASV12-expressing BJeLR cells. BJeLR (HRASV12) viability, CellTiter-Glo ATP luminescence, 48 h; reference of the scale not given here. inhibition, % (test concentration not listed). hit rate 0.17% among 300,000. AID 1554;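 active means replicate mean above 50%; inconclusive means above 50% but judged a plate artefact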;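 further: 50 nL library stock added to about 25 µL; numbers are from one replicate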
Bead autofluor: compound fluorescence in toxin protease inhibitor counterscreen; AID 624483; compound autofluorescence counterscreen, microsphere flow cytometry; active compounds read high; hit rate 3.1% among 360,000; fluorescence intensity (test concentration not listed);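 active means at least 3 SD above the mean of all compounds, about 16000 in these data; inconclusive means too few beads counted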;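 further: 100 nL of 1 mM stock went into each well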
Mtb hypoxia rep growth: second read-out of Mtb hypoxia rep, no call of its own (marks repeat the call); growth inhibition, %; measured here: M. tuberculosis growth (absorbance);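 0% = vehicle and 100% = reference antibiotic; read after six days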
Starred values were filed as active, the others as inactive; u = inconclusive; x = not tested or not shown.

SMILES | PrP UTR inh | Mtb hypoxia rep | Mtb hypoxia rep growth | ugtP null kill | Sa RN4220 lethal | BJeLR viability | Bead autofluor
CCCN(C(=O)c1ccc(N2CCCC2=O)cc1)C1CCS(=O)(=O)C1 (stereo not given) | -18.6 | 7.1 | 2.5 | 6.0 | 5.5 | x | 2848
O=C(N/N=C/c1ccncc1)c1cc2c(ccc3ccccc32)o1 | -58.2 | x | x | x | x | -0.1 | 3158
Cc1ccc(CN2C(=O)CSC2c2cccnc2)cc1 (stereo not given) | -0.6 | 3.0 | 7.3 | 5.7 | 4.3 | -7.0 | 3707
Cc1ccc(C)c(Nc2nc(-c3ccncc3)nc3ccccc23)c1 | -6.3 | 12.9 | -6.8 | -2.2 | -2.3 | -1.1 | 3520
COCCSc1nc2sc3c(c2c(=O)n1-c1ccccc1)CCN(C)C3 | -14.4 | -4.1 | 10.8 | -7.2 | -12.7 | -3.4 | 4588
COc1ccc(NC(=O)Cn2nnc3ccccc32)c([N+](=O)[O-])c1 | -21.7 | 9.6 | 3.4 | 2.6 | 0.3 | 4.5 | 3299
N#Cc1ccc(NC(=O)c2cc(S(=O)(=O)N3CCOCC3)ccc2N2CCCC2)cc1 | 0.1 | -1.5 | 9.8 | -5.6 | -0.6 | -14.3 | x
COc1ccccc1C=NNC(=O)NC12CC3CC(CC(C3)C1)C2 | x | -7.2 | 1.8 | -0.5 | 8.3 | x | x
C=C(C)Cn1c(-c2ccccc2)nc2ccccc21 | -19.4 | 1.3 | 0.5 | 10.6 | 7.0 | 2.9 | 3538
COc1ccc(CCNC(=O)CCCc2ccccc2)cc1 | -14.7 | 9.5 | 3.0 | 9.0 | 0.8 | -15.1 | x
CC(C)CCC(CCNCc1ccccn1)c1ccc(Cl)cc1 (stereo not given) | -6.5 | x | x | x | x | -4.2 | 3138
N#CCCn1cc(C(=O)Nc2ccccc2Cl)c(-c2ccc([N+](=O)[O-])cc2)n1 | -12.0 | 7.3 | 7.4 | 11.3 | 3.0 | -1.0 | 2599
O=C(CSc1nc(=O)n(CCCN2CCOCC2)c2c1CCC2)Nc1ccc(F)cc1 | -31.9 | 7.9 | 4.9 | -1.9 | 7.5 | 17.6 | x
Cc1cc(NC(=O)c2ccc3c(c2)C(=O)N(Cc2ccccc2)C3=O)no1 | -22.0 | 8.5 | 8.7 | -9.4 | 2.3 | 1.4 | 2576
COc1ccc(S(=O)(=O)NCCSc2ccc(C)cc2)cc1OC | -6.2 | x | x | -5.7 | 0.3 | -0.9 | 4335
COc1ccc(CN(C)C(=O)C23CC4CC(CC(Cl)(C4)C2)C3)c(OC)c1OC | -22.2 | 10.5 | 8.6 | 6.1 | 0.5 | 6.9 | 3809
O=C1CCCN1c1ccc(S(=O)(=O)N2CCCCC2)cc1[N+](=O)[O-] | -8.9 | 8.5 | 3.4 | 6.3 | 5.8 | 3.9 | 4181
Nc1ccc(-n2nc3ccccc3n2)cc1 | -4.1 | 12.5 | 10.7 | -4.7 | 6.8 | -2.6 | 4190
Cc1nc(NS(=O)(=O)c2ccc(Br)cc2)c2c3c(sc2n1)CCC3 | -11.0 | x | x | x | x | -0.3 | 2781
CCOc1ccc2nc(NC3=NC(C)(C)C=C(C)N3)nc(C)c2c1 | -14.9 | -4.2 | 4.3 | -8.6 | 0.3 | -3.9 | 9858
COc1ccc(NC(=O)CN(C)C(=O)/C=C/c2cn(-c3ccccc3)nc2-c2cccs2)cc1 | -23.3 | 3.3 | 4.4 | -0.2 | -0.3 | -0.8 | 5089
C=CCCCCCCCCC(=O)N1CCN(c2cc3c(cc2F)c(=O)c(C(=O)O)cn3CC)CC1 | -15.3 | 2.8 | 8.0 | 93.3* | -4.8 | -5.6 | 3567
O=C(N/N=C/C(Br)=C/c1ccccc1)c1ccc([N+](=O)[O-])cc1 | -9.3 | x | x | x | x | -5.9 | 5409
C[C@@H]1CC=C[C@H]2[C@H]1C(=O)N(Cc1ccccc1)[C@H]2c1ccc(-c2ccoc2)cc1F | 0.0 | x | x | x | x | 9.0 | 3744
CCOC(=O)c1c(NC(=O)c2ccn(CC)n2)sc2c1CCC2 | -8.4 | 0.6 | -2.8 | -0.6 | 4.0 | 1.7 | 5627

The list goes on; the last 2 above are carried over.
SMILES | PrP UTR inh | Mtb hypoxia rep | Mtb hypoxia rep growth | ugtP null kill | Sa RN4220 lethal | BJeLR viability | Bead autofluor
C[C@@H]1CC=C[C@H]2[C@H]1C(=O)N(Cc1ccccc1)[C@H]2c1ccc(-c2ccoc2)cc1F | 0.0 | x | x | x | x | 9.0 | 3744
CCOC(=O)c1c(NC(=O)c2ccn(CC)n2)sc2c1CCC2 | -8.4 | 0.6 | -2.8 | -0.6 | 4.0 | 1.7 | 5627
COc1cccc(C(C2C(=O)CC(C)(C)CC2=O)C2C(=O)CC(C)(C)CC2=O)c1 | -8.2 | 4.1 | 2.6 | 2.2 | 2.4 | -4.7 | 3838
CN(C)c1nc(N(C)C)n(C(=O)c2cccs2)n1 | -11.2 | -6.5 | -1.5 | -3.7 | -0.4 | -9.7 | 3998
CCN(c1ccccc1)S(=O)(=O)c1ccc(F)c(C(=O)O)c1 | -25.8 | 1.9 | 5.4 | 2.0 | 3.1 | 4.4 | 10620
O=C(COC(=O)C1CCC1)Nc1ccc(OC(F)F)cc1 | -1.5 | x | x | 9.4 | 3.4 | 5.6 | 3142
COc1ccc(OC)c(-n2c(O)c(/C=C3\C(C)=Nc4ccccc43)c(=O)[nH]c2=O)c1 | x | 8.0 | 0.0 | 0.8 | 2.7 | -2.4 | 5525
CCCOC1CCCN(C(=O)CCc2nnc(Cc3cccc(C)c3)o2)C1 (stereo not given) | -36.9 | 7.0 | -2.0 | -1.4 | 1.5 | 4.1 | 4258
CCC(C)C(NC(=O)c1ccccc1NC(=O)c1ccc(OC)cc1)C(=O)NCc1ccco1 (stereo not given) | -13.4 | -12.4 | 6.2 | -6.8 | 1.5 | -11.8 | 6679
COCCCNCCCOc1ccc(C)cc1Br | -14.2 | x | x | x | x | 5.2 | 2449
COc1cccc(NC(=O)CN(C)C(=O)CCc2nc3sc4c(c3c(=O)[nH]2)CCCC4)c1 | -10.5 | -1.9 | 0.9 | 2.3 | 3.6 | 11.5 | x
O=C(NN=C/C(Br)=C\c1ccccc1)c1ccco1 | x | 3.6 | -4.0 | 0.9 | -5.3 | x | x
O=[N+]([O-])c1cccc(-c2nc(-c3ccccc3)no2)c1 | -107.3 | 2.5 | 6.4 | 4.9 | 8.3 | -3.1 | 4236
COc1ccc(C(=O)N(Cc2ccccc2)c2cccc(C)c2)cc1S(=O)(=O)N1CCOCC1 | -14.6 | 3.6 | 6.4 | 1.3 | 3.6 | -0.5 | u
CCCCCn1c(=O)[nH]c2cc(C(=O)N3CCN(c4ccc(F)cc4)CC3)ccc2c1=O | -19.2 | 4.5 | 1.6 | 5.0 | 2.1 | x | 3912
COc1ccc(C2CC(=O)c3c(C)nc(N4CCN(Cc5ccccc5)CC4)nc3C2)cc1OC (stereo not given) | -20.2 | 6.9 | 10.8 | 0.5 | 0.3 | 2.2 | 4645
O=C1Nc2cc3c(cc2C1=O)sc1ccccc13 | x | 5.4 | 0.5 | -2.1 | 5.3 | 4.0 | x
O=C(NC1CCCCCC1)c1cccnc1Sc1ccccc1 | -30.9 | 0.6 | 7.1 | -1.1 | 1.6 | -3.0 | 2196
COc1ccc(CNC(=O)c2cc(C3CC3)nc3c2cnn3C(C)C)cc1OC | 13.4 | -2.2 | -5.0 | -4.6 | -4.1 | x | 3736
COc1ccc(N/C=C(\C#N)c2nc3ccccc3n2C)c(OC)c1 | -2.9 | -16.3 | -7.0 | -31.5 | -11.8 | -11.9 | 18044*
NC(=O)C1CCN(CC(=O)NCc2ccccc2)CC1 | 0.6 | x | x | 6.8 | -0.6 | 4.0 | 2871
CC12CN3CC(C)(CN(C1)C3c1ccc([N+](=O)[O-])o1)C2 (stereo not given) | -16.3 | 2.3 | 2.0 | -3.3 | 3.7 | -2.8 | 4004
CN(Cc1ccccc1)C(=O)c1ccc(Cl)c([N+](=O)[O-])c1 | -9.3 | 5.2 | 2.0 | 3.8 | 4.2 | 9.1 | 2023
Cc1cc(NC(=O)C2CC(=O)N(c3ccccc3C)C2)no1 (stereo not given) | -20.6 | -4.9 | 9.1 | 10.1 | 0.8 | 9.5 | 3820
O=C(NC1CCN(C(=O)c2ccccc2Br)CC1)c1ccccc1 | -4.3 | -1.3 | 1.3 | 2.1 | 2.7 | 0.1 | 3568
Cc1ccc(C(=O)n2nnc3ccccc32)cc1[N+](=O)[O-] | 3.4 | 11.3 | 6.7 | 3.2 | 8.8 | 4.0 | 2434
Cc1ccc(NC(=S)N2CC(C)OC(C)C2)cc1C (stereo not given) | -8.0 | 5.5 | -2.6 | 0.5 | 3.8 | x | 6099

For convenience, part of the list above.
SMILES | PrP UTR inh | Mtb hypoxia rep | Mtb hypoxia rep growth | ugtP null kill | Sa RN4220 lethal | BJeLR viability | Bead autofluor
NC(=O)C1CCN(CC(=O)NCc2ccccc2)CC1 | 0.6 | x | x | 6.8 | -0.6 | 4.0 | 2871
CC12CN3CC(C)(CN(C1)C3c1ccc([N+](=O)[O-])o1)C2 (stereo not given) | -16.3 | 2.3 | 2.0 | -3.3 | 3.7 | -2.8 | 4004

More records follow.
SMILES | PrP UTR inh | Mtb hypoxia rep | Mtb hypoxia rep growth | ugtP null kill | Sa RN4220 lethal | BJeLR viability | Bead autofluor
O=C(CN1C(=O)/C(=C\c2cccc(F)c2)Oc2ccccc21)N1CCN(c2ccccn2)CC1 | -5.3 | 4.5 | 3.6 | 12.2 | 5.4 | -2.3 | 2424
CCCC[n+]1ccn(-c2nc3c([N+](=O)[O-])cccc3n2C)c1 | -25.8 | 9.7 | 3.0 | 7.3 | 1.1 | -3.8 | 4042
Cc1nc(NC(=O)C2CC2)sc1C(=O)Nc1cccc(Cl)c1 | -14.0 | 0.1 | 6.0 | 1.1 | 4.0 | 6.4 | 3578
NCCCC[C@@H](C(=O)N1CCNCC1)n1cc([C@@H](N)CO)nn1 | -4.4 | x | x | x | x | 3.6 | 3825
CC(=O)N1/C(=C/c2ccc(N(C)C)cc2)C(=O)c2ccccc21 | 3.2 | -8.3 | 5.9 | -9.7 | -1.0 | 6.8 | 5606
Cc1ccc2c(c1)N(C(=O)CCC(=O)NCCCN1CCN(C)CC1)CCO2 | -32.2 | -12.7 | -12.2 | -2.6 | -1.6 | 5.4 | 5670
CCCCN(C(=O)c1cc(-c2ccco2)nc2ccccc12)c1c(N)n(CCCC)c(=O)[nH]c1=O | -10.4 | 2.0 | -0.5 | 6.6 | 0.8 | -0.5 | 4200
Cn1cnc([N+](=O)[O-])c1Oc1cccc2ccccc12 | 1.5 | 6.0 | 9.6 | -3.3 | 8.9 | -1.5 | 2862
Cc1ccccc1NC(=O)COC(=O)c1c[nH]c(=O)[nH]c1=O | -19.1 | 4.3 | 4.1 | 10.0 | -0.2 | -0.8 | 2290
O=C(NCc1ccc2c(c1)OCO2)C1CCN(c2ncccn2)CC1 | 7.6 | -7.2 | -2.2 | -1.0 | -0.9 | 0.3 | 21984*
CN1CCN(CP(=O)(N2CCOCC2)N2CCOCC2)CC1 | -7.7 | 3.1 | -3.4 | 5.8 | 2.2 | -3.6 | 4226
CN(C)c1ccc(CNc2ccc3c(c2)ncn3C(C)(C)C)cc1 | 2.6 | 3.4 | 6.6 | 0.3 | -0.2 | -12.6 | 3158
O=C(NCC(=O)N(CC1CCCO1)C(C(=O)NC1CCCC1)c1ccc(F)cc1)c1ccco1 (stereo not given) | -17.6 | x | x | 6.7 | 1.3 | -2.2 | 4322
CCCCCSc1nc2c(c(=O)[nH]c(=O)n2C)n1CC | -17.6 | -9.5 | 6.6 | 5.7 | 13.4 | 1.1 | 6371
CCCCN1C(=O)/C(=C/C=C2\Oc3ccccc3N2CC)SC1=S | -23.0 | 8.5 | 4.4 | 5.4 | -0.3 | -3.0 | 14747
N#Cc1c(Nc2ccccc2)c(C=NCCN2CCOCC2)c[nH]c1=O | -12.2 | x | x | 1.5 | 7.6 | -8.8 | 2124
CCOc1ccc(NC(=O)c2ccc(C#CC(C)(C)O)cc2)cc1 | -17.3 | 4.6 | 1.0 | 5.8 | 0.7 | -4.8 | 11343

Look-ups from above.
Mtb hypoxia rep growth result of O=C(NC1CCCCCC1)c1cccnc1Sc1ccccc1 = 7.1
Mtb hypoxia rep growth result of Cc1ccc(NC(=S)N2CC(C)OC(C)C2)cc1C (stereo not given) = -2.6
Sa RN4220 lethal result of Cc1cc(NC(=O)C2CC(=O)N(c3ccccc3C)C2)no1 (stereo not given) = 0.8
